# Screening data as filed in PubChem BioAssay.
# VDR inhibitor = inhibitors of human vitamin D receptor. Potency, µM, inactives show max response, negative = inhibition, actives largely listed as inhibitors. P11473. VDR-SRC2-3 peptide fluorescence polarization, 2 h. 0.93% of 400,000 active; active = well fitted inhibition curve with a large enough effect; inconclusive = small, poorly fitted or top-dose-only effect, or another doubt; inactive = no such curve, though single readings can be large or run the other way; note: series mostly up to about 120 µM
# Target sequence (P11473 whole entry, looked up): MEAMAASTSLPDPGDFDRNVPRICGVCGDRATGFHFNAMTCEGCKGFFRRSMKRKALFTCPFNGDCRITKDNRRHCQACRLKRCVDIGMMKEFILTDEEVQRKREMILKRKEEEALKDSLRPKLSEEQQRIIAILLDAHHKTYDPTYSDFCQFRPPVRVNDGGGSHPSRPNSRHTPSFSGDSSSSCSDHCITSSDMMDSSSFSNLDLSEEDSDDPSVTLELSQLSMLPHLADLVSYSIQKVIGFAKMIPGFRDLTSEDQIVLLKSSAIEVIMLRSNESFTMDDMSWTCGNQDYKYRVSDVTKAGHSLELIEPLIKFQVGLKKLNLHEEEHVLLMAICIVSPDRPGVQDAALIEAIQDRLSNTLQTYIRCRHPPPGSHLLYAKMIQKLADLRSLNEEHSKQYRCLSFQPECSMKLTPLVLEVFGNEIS
#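 Fluorescence polarization assay of small-molecule disruption of VDR binding to coregulator peptide SRC2-3. Compounds and controls pin-transferred, then read after 2 h incubation at ambient room temperature.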
# Starred values were filed as active, the others as inactive; ? = inconclusive; & = joins results of further samples; [ ] = another dose, or the depositor's remark. % is set by controls: 0 for no effect and ±100 for the full control effect; potency is the fitted concentration of half-maximal effect. Only part of the results is shown; count on the stated rates, not on these rows.
VDR inhibitor	Compound
-9%&-2%	Nc1ccc2oc(-c3ccccc3Cl)cc(=O)c2c1O
-2%	Cc1nn(-c2ccccc2)c(C)c1NC(=O)COC(=O)c1ccc(Cl)c(S(N)(=O)=O)c1
8%	COc1ccc(CNC(=O)c2ccc(N3CCCC3)c(NC(=O)NCc3ccc(C)cc3)c2)cc1
-34%	O=C1NC[C@H](c2ccccc2)N(CCc2cc(C(F)(F)F)cc(C(F)(F)F)c2)C1=O
-19%	COc1ccc(OC)c(NC(=O)CCCCCn2nnc3ccccc3c2=O)c1
4%	O=C(NC(NC(=S)Nc1c(Cl)cccc1Cl)C(Cl)(Cl)Cl)OCc1ccccc1 (centres undefined)
-16%	COc1ccc(CNC(=O)NCCc2c[nH]c3ccccc23)cc1
6%	Cc1ccccc1NC(=O)C(NS(=O)(=O)c1ccc2c(c1)c(=O)n(C)c(=O)n2C)c1ccccc1 (centres undefined)
-12%	CCC(=O)N1N=C(c2c(O)n(C)c(=O)n(C)c2=O)CC1c1ccccc1 (centres undefined)
-17%	COc1ccc(-c2sc3cc4c(cc3c2C#Cc2ccc(N)cc2)OCO4)cc1
-13%	O=C(CCc1ccc(S(=O)(=O)NC2CCCCC2)cc1)NCc1ccccn1
1%	CC1CCC(NC(=O)C(Cc2ccccc2)n2cccc2)CC1 (centres undefined)
5%	CC(C)(O)[C@H]1Cc2cc3ccc(=O)oc3cc2O1
5%	COc1ccc(NC(=O)C2CCCO2)cc1Cl (centres undefined)
-16%	CC(C)=CCC[C@](C)(O[C@@H]1O[C@H](CO[C@@H]2OC[C@H](O[C@@H]3OC[C@@H](O)[C@H](O)[C@H]3O)[C@H](O)[C@H]2O)[C@@H](O)[C@H](O)[C@H]1O)C1CC[C@]2(C)C1[C@H](O)CC1[C@@]3(C)CC[C@H](O)C(C)(C)C3[C@@H](O)C[C@]12C (some centres undefined)
3%	CCOC(=O)c1[nH]c2ccc(OCC)cc2c1NC(=O)CN1CCN(c2ccccc2)CC1
1%	CCc1cccc(OCC2Cn3c(nc4c3c(=O)n(C)c(=O)n4C)O2)c1 (centres undefined)
7%	O=C1CC2(CCN(C(=O)c3c(F)cccc3Cl)CC2)Oc2ccccc21
7%	COc1cc(-c2noc(-c3cc4cccc(C)c4oc3=O)n2)cc(OC)c1OC
-6%	Cc1noc(/C=C/N(C)C)c1S(=O)(=O)N1CCCC(C(=O)NC2CCCCC2C)C1 (centres undefined)
4%	O=C(CSc1ccc2c(c1)OCCO2)N1CCN(c2ccccc2O)CC1
-3%	NS(=O)(=O)c1ccc(NC(=S)NNC(=O)c2cccs2)cc1
-13%	CCOC(=O)N1CCN(c2c(NC3CCN(Cc4ccccc4)CC3)c(=O)c2=O)CC1
14%	COCCNC(=O)Cn1cc(S(=O)(=O)N2CCN(c3ccccc3F)CC2)c2ccccc2c1=O
1%	COC(=O)c1c(O)ccc(Oc2ccccc2)c1C(=O)OC

# (next part)
VDR inhibitor	Compound
-4%	Cc1sc2ncnc(OCC(=O)NCC3CCCO3)c2c1C (centres undefined)
-1%	COCCCNC(=O)CCCn1c(=O)c2cccn2c2ccccc21
9%	Cc1ccc2c(=O)cc(C(=O)Nc3sc4c(c3C(=O)NCc3ccco3)CCC4)oc2c1C
?	O=C(Nc1nc2ccc(F)cc2s1)c1nc(S(=O)(=O)Cc2ccccc2)ncc1Cl
-7%	Fc1ccc(CNC(=S)Nc2ccccc2Cl)cc1
1%	Cc1ccsc1C(=O)OCC(=O)NC1CCCCC1C (centres undefined)
12%	COc1ccccc1CN1CCN(Cc2nc(Cc3ccccc3)no2)CC1
3%	COC(=O)Nc1nnc(/C=C/c2ccc(OC)cc2)s1
30%[activator]	Cc1oc(/N=C/c2ccc(Cl)cc2Cl)c(C#N)c1C
-20%	COc1ccc(CN2CCN(C(=O)c3ccc4c(c3)CCC4)CC2)cc1OC
-16%	COc1ccc(NC(=O)CN(C)S(=O)(=O)c2ccc(C)cc2)c([N+](=O)[O-])c1
9%	Cc1ccc(Nc2ncccc2C(=O)NCc2cccs2)c(C)c1
0%	COC(=O)CSC1=C(C#N)C(c2cccc(F)c2)CC(=O)N1 (centres undefined)
-13%	O=c1c(CCc2ccccc2)nc2cncnc2n1Cc1ccc(F)cc1
?	O=C(c1csnn1)N1CCC2(CCCN(c3ccncc3)C2)CC1
-14%	Cc1nc2cc(NC(=O)Nc3cccc([N+](=O)[O-])c3)ccc2n1C
-16%	Cc1ccc2[nH]c(=O)c(CN(Cc3ccccc3)Cc3nnnn3Cc3ccccc3)cc2c1
-6%	CC1(C(=O)NCCCNc2ncc(C(F)(F)F)cc2Cl)C=CCN1C(=O)c1ccccc1 (centres undefined)
-1%	CC1(c2cccc(Br)c2)NC(=O)N(CC(=O)N2CCN(C(=O)c3ccco3)CC2)C1=O (centres undefined)
-7%	CC1CCCCC12NC(=O)N(CC(=O)N1CCN(C(=O)c3ccco3)CC1)C2=O (centres undefined)
0%	Cc1ccc(-c2nn3cnnc3c3ccccc23)cc1C
-4%	CC(C)c1ccc(CN2CCN(C(=O)CCl)CC2)cc1
10%	CCCCC(=O)Nc1ccc(OCc2cc(=O)n3ccc(C)cc3n2)cc1
-5%	O=C(COC(=O)CNS(=O)(=O)c1ccc(F)c(F)c1F)NC1CCCC1
-9%	O=C(Cn1cnc2ccccc2c1=O)c1c[nH]c2ccccc12

# 3 records drawn at random from those above, as already listed:
VDR inhibitor	Compound
6%	Cc1ccccc1NC(=O)C(NS(=O)(=O)c1ccc2c(c1)c(=O)n(C)c(=O)n2C)c1ccccc1 (centres undefined)
4%	O=C(CSc1ccc2c(c1)OCCO2)N1CCN(c2ccccc2O)CC1
14%	COCCNC(=O)Cn1cc(S(=O)(=O)N2CCN(c3ccccc3F)CC2)c2ccccc2c1=O

# (next part)
VDR inhibitor	Compound
2%	O=C(COC(=O)c1ccc(F)cc1)NC1CC1
17%	Cc1ccc(Cn2c(=O)n(CCC(=O)NCc3ccc4c(c3)OCO4)c(=O)c3ccccc32)cc1
5%	COc1ccc(OC)c(-n2c(N)c(C(=O)NCC3CCCO3)c3nc4ccccc4nc32)c1 (centres undefined)
-21%	Fc1ccc(CSc2nnc(-c3cccnc3)o2)cc1
1%	CCOc1ccc(CC(=O)Nc2ccc(NC(=O)c3ccco3)cc2)cc1OCC
26%	C=CCNCC(=O)Nc1sc2c(c1C(=O)Nc1ccc(OC)cc1OC)CCC2
-2%	Cc1nnc(SCc2ccccc2)nc1-c1ccccc1
-4%	COc1ccc2oc(C(=O)OCC(=O)NC3CC3)c(C)c2c1
-11%	C1CCC(n2nnnc2CN2CCCC2)CC1
-12%	CN(C)c1ccc(C(=O)Nc2nnc(-c3ccc(Cl)cc3)o2)cc1
0%	Cc1c(Br)c([N+](=O)[O-])nn1CC(=O)NCc1cccs1
8%	CC(C)Cn1c(=O)c2sccc2n2c(CCCC(=O)Nc3ccc(Cl)cc3)nnc12
-4%	Cc1cccc(-c2nnc(SCC#N)n2Cc2ccccc2)c1
7%	COC(=O)C1=C(C(=O)OC)[C@@H]2N(Cc3ccccc3)c3ccccc3[C@@]23C[C@@H](C(=O)OC)N(C(=O)NCc2ccccc2)C3=C1
15%	Cc1ccc(C(=O)NCCNS(C)(=O)=O)cc1
-1%	O=c1cc(Cl)nc2ccccn12
0%	COc1cc(OC)cc(C(=O)Nc2ccc(-c3nc4ccccc4o3)c(O)c2)c1
5%	CC(C)(C)C(=O)Nc1ccc(-c2cnco2)cc1
-2%	COc1cc(NC(=O)C2CCCN2S(=O)(=O)c2cccc3cccnc23)cc(OC)c1OC (centres undefined)
-16%	Cc1cc(=S)nc(-c2ccccn2)[nH]1
8%	CCOc1ncccc1C(=O)OCC(=O)c1cc(OC)ccc1OC
1%	O=C(NCCO)c1c(-c2ccc3c(c2)OCO3)noc1-c1ccsc1
-1%	Fc1ccc(CSc2nc3ccccc3[nH]2)c2ccccc12
19%	COc1cccc(NC2=CC(=O)CC(C)(C)C2)c1
45µM*	O=C(c1ccncc1)N1CCC2(CCCN(c3cccc(-c4ccccc4)c3)C2)CC1

# (listing goes on)
VDR inhibitor	Compound
7%	O=C(NCCc1ccc(Cl)cc1)c1cnc2sc(N3CCOCC3)nn2c1=O
1%	Cc1ccc(NC(=O)CSCC(=O)Nc2sccc2C#N)cc1
4%	COc1cc(C(=O)Nc2ccc(C(=O)c3cccs3)cc2)cc(OC)c1OC
-6%	CCCOC(=O)C1[C@H]2C(=O)N(Cc3ccco3)C[C@]23C=C[C@H]1O3 (some centres undefined)
6%	Cc1c(C)n(C(=O)CN2CCC(C)CC2)c2ccccc12
-1%	O=Cc1c(N2CCN(CCO)CC2)nc2ccccn2c1=O
40µM*	Cc1ccc(C(=O)NN2C(=O)c3ccc(S(=O)(=O)c4ccc(C(=O)O)cc4)cc3C2=O)cc1
3%	Cc1cc(OCCn2ccnc2)cc(C)c1Cl
-13%	COc1cc(OC)cc(-c2c(-c3cccs3)c3cc(-c4ccc5c(c4)OCCO5)ccc3n2C)c1
?	Cc1nnsc1C(=O)NNc1ccc(C(C)(C)C)cc1
-11%	Cc1cc(C)c(C#N)c(SCC(=O)C(C)(C)C)n1
0%	Cc1cc(C)cc(N2CCn3c2nc2c3c(=O)n(CCCc3ccccc3)c(=O)n2C)c1
-3%	COc1ccc(NC(=O)COC(=O)/C=C/c2cccs2)c(OC)c1
-11%	COCCSc1ccccc1C(=O)N1CCN(c2ccccc2OC)CC1
5%	COc1ccccc1/C=C1\SC(=S)N(CCC(=O)NNC(=O)c2ccccc2O)C1=O
14%	O=C(Nc1cccc(S(=O)(=O)NC2=NCCC2)c1)c1cn(-c2ccccc2)nc1-c1ccc(F)cc1
-7%	Cc1cc2cccc(C)c2nc1SCC(=O)NNC(=O)c1ccco1
12%	CCC[N+]1(CC#CC2(O)CCCCC2)CCOCC1
-14%	COc1ccc(C=O)cc1Cn1ccnc1
-16%	Nc1c(C(=O)NCc2cccs2)nnn1CC(=O)Nc1cccc(Cl)c1
?	Cc1ccc(C(CCN(Cc2ccccc2)C(=O)c2ccco2)c2ccco2)cc1 (centres undefined)
-14%	CSc1ccccc1NC(=S)Nc1ccccc1C(F)(F)F
-3%	CCOC(=O)CC(NC(=O)CCc1c(C)nc2c(-c3ccccc3)c(C)nn2c1C)c1ccc(OC(C)C)cc1 (centres undefined)
4%	COc1ccc(/C=N/NC(=O)c2ccc(COc3cccc4cccnc34)cc2)cc1O
-3%	CC(C)Oc1ccc(C(=O)N/N=C/c2ccc(-c3ccc(S(=O)(=O)Nc4ncccn4)cc3)o2)cc1

# (continued)
VDR inhibitor	Compound
-10%	COC(=O)C1C2C=CC3(CN(C(C)C)C(=O)C13)O2 (centres undefined)
-3%	N#Cc1ccc(OCC(=O)NCC2(N3CCCCC3)CCCCC2)cc1
-14%	COc1ccccc1N=Nc1c(C)[nH]n(-c2ccccc2)c1=O
13%	Cc1cc(C(=O)Cn2c(CO)nc3ccccc32)c(C)n1C
24%	Cc1ccccc1C(=O)N=c1sccn1C
6%	COc1ccc(C)cc1NC(=O)N1CCC(CN2CCOCC2)CC1
-29%	O=C(Nc1ccc(Cl)c(C(=O)N2CCOCC2)c1)c1ccccc1
2%	COc1ccc(NC(=O)CCS(=O)(=O)c2ccc3c(c2)CCCN3C(C)=O)cc1
0%	N/C(=N\OC(=O)c1ccccc1[N+](=O)[O-])c1cccnc1
-18%	CCc1ccc(NC(=S)N(CCN(C)C)C(C)c2ccncc2)cc1 (centres undefined)
-17%	CSCCC(NC(=O)c1ccco1)c1nc2ccccc2[nH]1 (centres undefined)
-18%	Cc1ccc2[nH]c3nc(SCCN4CCOCC4)nnc3c2c1
-5%	Cc1cccc(C(=O)NCCCNC(=O)c2ccco2)c1
-5%	CCN(CC)c1ccc(-c2nc(-c3ccco3)no2)cc1[N+](=O)[O-]
0%	Cc1ccc(Nc2nc(NCc3ccco3)nc3nccnc23)cc1Cl
-25%	CC(C)c1ccc(S(=O)(=O)N2CCN(C(=O)C3CCN(C(=O)c4ccc(F)cc4)CC3)CC2)cc1
-12%	CCOc1ncccc1C(=O)Nc1nnc(C2CC2)s1
-2%	CN1CCN(CCC(=O)Nc2ccccc2Cl)CC1
2%	CC(=O)N(C(C)=O)S(=O)(=O)c1ccc(N=NN2CCCCC2)cc1
-14%	COc1ccc(/C=N/NC(=O)CC(=O)NCCc2ccccc2)cc1OC
-5%	COc1ccc(NC(=O)CN(C)CC(=O)Nc2cccc(S(=O)(=O)N(C)c3ccccc3)c2)cc1
-17%	Cc1ccc(C(=O)Nc2nnc(CC(=O)N/N=C/c3ccc(O)c(O)c3)s2)cc1
-9%	COc1cc(CCC(=O)N2CCN(c3ccccc3)CC2)cc(OC)c1OC
3%	Cc1occc1C(=O)Nc1sccc1C(N)=O
-12%	O=C(C1CCN(c2ncnc3c2sc2cccc(F)c23)CC1)N1CCOCC1
1%	CCC(C)(C(=O)NC1CCCC1)N(C(=O)CNC(C)=O)c1ccccc1 (centres undefined)
6%	CCCn1c(/C=C/c2cc[n+](C)cc2)nc2ccccc21
1%	CC(=O)N1CC=CC1(CC(C)C)C(=O)NCCc1c[nH]c2ccccc12 (centres undefined)

# Grouped by structure: the compounds so far containing a tert-butyl group
VDR inhibitor	Compound
5%	CC(C)(C)C(=O)Nc1ccc(-c2cnco2)cc1
?	Cc1nnsc1C(=O)NNc1ccc(C(C)(C)C)cc1
-11%	Cc1cc(C)c(C#N)c(SCC(=O)C(C)(C)C)n1

# Five compounds from above, ordered by the number in VDR inhibitor, smallest number first.
VDR inhibitor	Compound
-9%	COc1cc(CCC(=O)N2CCN(c3ccccc3)CC2)cc(OC)c1OC
0%	N/C(=N\OC(=O)c1ccccc1[N+](=O)[O-])c1cccnc1
1%	CCC(C)(C(=O)NC1CCCC1)N(C(=O)CNC(C)=O)c1ccccc1 (centres undefined)
2%	CC(=O)N(C(C)=O)S(=O)(=O)c1ccc(N=NN2CCCCC2)cc1
13%	Cc1cc(C(=O)Cn2c(CO)nc3ccccc32)c(C)n1C
